Bioassay records: PubChem BioAssay, Broad Institute
Vaccinia inh: Vaccinia orthopox stage-specific inhibition; Vaccinia-infected cells, mCherry/Venus stage reporter fluorescence; stronger effect = lower value; some inactives read as strong as hits; activity change (mCherry), % (no concentration beside the values); actives 0.01% (n = 89,000); AID 1053133;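 active = mCherry past -33% and 40 or more points under the early reporter, replicates agreeing; inconclusive = past -33% without that gap or agreement; tested in A549 cells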;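 also: scaled between vehicle wells and reference inhibitor wells; 23 nL library stock went into each well; one replicate is shown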
Vaccinia inh Venus: further read-out of Vaccinia inh, marked with its call; activity change (Venus), %; measured here: Venus reporter, other viral stage;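 negative = less Venus signal; first of two replicates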
The depositor's hits bear a star; ? = inconclusive; nt = no result given. This is a subset (hit frequency here may not be typical).

SMILES	Vaccinia inh	Vaccinia inh Venus
C[C@@H]1CCCCO[C@H](CN(C)S(=O)(=O)c2ccccc2)[C@H](C)CN([C@H](C)CO)C(=O)c2cc(N(C)C)ccc2O1	-23	-16
O=C(C[C@@H]1CC[C@@H]2[C@H](COC[C@@H](O)CN2C(=O)C2CC2)O1)NCc1ccncc1	1	-1
CC(=O)N(C)C[C@H]1Oc2ncc(-c3ccccc3C)cc2C(=O)N([C@@H](C)CO)C[C@@H]1C	-4	-4
C[C@@H]1CN([C@@H](C)CO)C(=O)c2cc(C3=CCCC3)cnc2O[C@H]1CN(C)Cc1ccccn1	15	1
CC(C)CC#Cc1ccc([C@H]2[C@@H](CO)N3CCCCN(S(=O)(=O)c4ccc(F)cc4)C[C@H]23)cc1	-16	-30
COc1ccc(S(=O)(=O)N(C)C[C@H]2Oc3ccc(NC(=O)CCN4CCOCC4)cc3C(=O)N([C@H](C)CO)C[C@H]2C)cc1	17	11
O=C(NCC[C@@H]1CC[C@H](NC(=O)C2CCOCC2)[C@H](CO)O1)c1ccc(F)cc1	5	-4
CN(C)C(=O)c1cccc(-c2ccc([C@H]3[C@H](CO)N4CCCCN(C(=O)C5CCCC5)C[C@@H]34)cc2)c1	19	9
COc1ccc(NC(=O)N2CC3(C2)CN(CC2CC2)[C@H](CO)c2c3c3ccc(OC)cc3n2C)cc1	-19	-12
O=C(C1CCOCC1)N1[C@@H](CO)[C@@H](c2ccccc2)C12CN(CCC(F)(F)F)C2	8	9
O=C(C[C@H]1C[C@H]2c3cc(NC(=O)Cc4ccncc4)ccc3O[C@H]2[C@@H](CO)O1)NCc1cccnc1	5	5
C/C=C/c1ccc([C@@H]2[C@H](CO)N(C(C)=O)C23CN(S(C)(=O)=O)C3)cc1	0	6
C[C@H](CO)N1C[C@H](C)[C@@H](CN(C)Cc2cccc(F)c2)OCc2ccccc2-c2c(n(C)c3ccccc23)C1=O	?	nt
CCCN1[C@H](C(=O)NCc2cccc(OC)c2)[C@@H](CO)[C@@H]2Cn3c(ccc(C4=CCCC4)c3=O)[C@@H]21	18	13
C[C@@H]1CCCCO[C@H](CN(C)Cc2ccc(C(=O)O)cc2)[C@H](C)CN([C@@H](C)CO)C(=O)c2cc(NC(=O)Nc3ccc(C(F)(F)F)cc3)ccc2O1	4	0
C[C@@H]1CN([C@H](C)CO)C(=O)c2cc(NC(=O)c3ccncc3)ccc2O[C@H]1CN(C)Cc1ccc(Oc2ccccc2)cc1	-23	-32
Cc1noc(C)c1NC(=O)N[C@H]1CC[C@H](CCNC(=O)C2CCCCC2)O[C@@H]1CO	8	4
C[C@@H]1CN([C@@H](C)CO)C(=O)c2cccc(NC(=O)Nc3ccc(C(F)(F)F)cc3)c2O[C@@H]1CN(C)C	-12	-10
C[C@H]1CN([C@@H](C)CO)C(=O)CCCn2cc(nn2)CO[C@@H]1CN(C)Cc1cccc(C(F)(F)F)c1	5	-2
C[C@@H]1CN([C@@H](C)CO)S(=O)(=O)c2ccc(C#Cc3cccc(F)c3)cc2O[C@H]1CN(C)S(=O)(=O)c1ccccc1F	-19	-11
C[C@@H]1CN([C@@H](C)CO)C(=O)c2cc(C#Cc3ccccc3F)cnc2O[C@@H]1CN(C)C(=O)Cc1cccnc1	-17	-17
C[C@@H]1CCCCO[C@H](CN(C)S(=O)(=O)c2cn(C)cn2)[C@H](C)CN([C@@H](C)CO)C(=O)c2cc(NC(=O)c3ccncc3)ccc2O1	0	-1
CO[C@H]1CC[C@@H]2CCN(C)C(=O)CCCN(C)C(=O)c3cc(C#N)ccc3OC[C@@H]1O2	28	14
COc1ccc(NC(=O)N(C)C[C@@H]2Oc3ccc(NC(=O)CCC(F)(F)F)cc3CC(=O)N([C@@H](C)CO)C[C@H]2C)cc1	7	7

Entries above that have a CF3 group:
SMILES	Vaccinia inh	Vaccinia inh Venus
O=C(C1CCOCC1)N1[C@@H](CO)[C@@H](c2ccccc2)C12CN(CCC(F)(F)F)C2	8	9
C[C@@H]1CCCCO[C@H](CN(C)Cc2ccc(C(=O)O)cc2)[C@H](C)CN([C@@H](C)CO)C(=O)c2cc(NC(=O)Nc3ccc(C(F)(F)F)cc3)ccc2O1	4	0
C[C@@H]1CN([C@@H](C)CO)C(=O)c2cccc(NC(=O)Nc3ccc(C(F)(F)F)cc3)c2O[C@@H]1CN(C)C	-12	-10
C[C@H]1CN([C@@H](C)CO)C(=O)CCCn2cc(nn2)CO[C@@H]1CN(C)Cc1cccc(C(F)(F)F)c1	5	-2
COc1ccc(NC(=O)N(C)C[C@@H]2Oc3ccc(NC(=O)CCC(F)(F)F)cc3CC(=O)N([C@@H](C)CO)C[C@H]2C)cc1	7	7

The list goes on:
SMILES	Vaccinia inh	Vaccinia inh Venus
C[C@H](CO)N1C[C@H](C)[C@H](CN(C)S(C)(=O)=O)Oc2ccc(NC(=O)Nc3ccc4c(c3)OCO4)cc2C1=O	17	3
C[C@H](CO)N1C[C@H](C)[C@@H](CN(C)S(=O)(=O)c2ccc(Cl)cc2)Oc2ccc(NC(=O)NC3CCCCC3)cc2C1=O	-16	-14
C[C@@H]1CN([C@H](C)CO)C(=O)c2cc(/C=C/c3ccccc3)cnc2O[C@@H]1CN(C)C(=O)c1ccc2c(c1)OCO2	-11	-9
CO[C@H](CN(C)S(=O)(=O)c1ccc(Cl)cc1)[C@H](C)CN(Cc1ccccc1Cl)[C@@H](C)CO	-10	-10
CCC(=O)N[C@H]1CC[C@@H](CC(=O)OC)O[C@@H]1CO	-1	2
C[C@H]1CN([C@@H](C)CO)C(=O)c2c(c3ccccc3n2C)-c2ccccc2CO[C@H]1CN(C)Cc1ccccc1C(F)(F)F	-18	-13
CC(C)NC(=O)Nc1ccc2c(c1)CC(=O)N([C@@H](C)CO)C[C@@H](C)[C@@H](CN(C)C(=O)NC1CCCCC1)O2	6	6
Cc1noc(C)c1S(=O)(=O)N(C)C[C@@H]1Oc2ccc(NC(=O)Cn3cnnn3)cc2CC(=O)N([C@H](C)CO)C[C@H]1C	-7	-4
C[C@H](CO)N1C[C@H](C)[C@H](CN(C)C)Oc2cc(C#Cc3cccnc3)ccc2S1(=O)=O	4	4
COc1ccc(S(=O)(=O)N(C)C[C@@H]2Oc3cc(-c4ccccc4OC)ccc3S(=O)(=O)N([C@@H](C)CO)C[C@@H]2C)cc1	-29	-34
COc1ccc(NC(=O)Nc2ccc3c(c2)C(=O)N([C@@H](C)CO)C[C@H](C)[C@H](CN(C)Cc2ccc(C(=O)O)cc2)OCCCC[C@H](C)O3)cc1	17	8
C[C@@H](O)C#Cc1ccc2c(c1)O[C@H](CN(C)C(=O)CN(C)C)[C@@H](C)CN([C@@H](C)CO)S2(=O)=O	2	0
C[C@@H]1CN([C@H](C)CO)C(=O)c2cc(NC(=O)Nc3ccc4c(c3)OCO4)ccc2O[C@H]1CN(C)CC1CCCCC1	-23	-20
COc1ccc(NC(=O)N(C)C[C@H]2Oc3c(cccc3N(C)C)C(=O)N([C@@H](C)CO)C[C@@H]2C)cc1	2	9
COc1ccc2c3c([nH]c2c1)[C@H](CO)N(C)CC31CCN(C(=O)CN(C)C)CC1	14	3
Cc1ccc(S(=O)(=O)N(C)C[C@@H]2Oc3ncc(C#CC4(O)CCCC4)cc3C(=O)N([C@H](C)CO)C[C@@H]2C)cc1	-2	-7
C[C@@H]1CN([C@@H](C)CO)C(=O)c2cccc(NS(=O)(=O)c3ccc(Cl)cc3)c2O[C@@H]1CN(C)C(=O)Nc1cccc2ccccc12	-6	7
C[C@H]1CCCCO[C@H](CN(C)C(=O)C2CCCCC2)[C@@H](C)CN([C@@H](C)CO)C(=O)c2cc(NC(=O)c3ccccc3)ccc2O1	?	nt
C#CCNC(=O)C1=C[C@H](c2ccc3c(c2)OCO3)C[C@H](OCc2ccc(CO)cc2)O1	10	16
O=C(c1cccc(F)c1)N1CC(=O)N2[C@H](C1)[C@H](c1ccc(/C=C/c3ccccc3)cc1)[C@@H]2CO	?	nt
COc1ccc2c3c([nH]c2c1)[C@@H](CO)N(C(C)=O)CC31CN(C(=O)Nc2ccc(F)cc2)C1	3	0
O=C(C[C@@H]1CC[C@@H]2[C@H](COC[C@H](O)CN2Cc2ccc(Oc3ccccc3)cc2)O1)N1CCOCC1	?	nt
COc1cc(O)c2c(c1)oc(=O)c1c3cc(O)c(O)cc3oc21	-18	-14
CCC(=O)N1CC[C@@H]2[C@H]1c1cc(-c3ccc(F)cc3)ccc1N[C@@H]2CO	-3	-1
C[C@H](CO)N1C[C@H](C)[C@@H](CN(C)C)Oc2ccc(NC(=O)Cc3ccccc3)cc2C1=O	15	6
COCCN(C[C@@H]1[C@@H](c2ccccc2)[C@@H](CO)N1C(C)=O)C(=O)c1ccncc1	4	10
C[C@H]1CN([C@@H](C)CO)C(=O)c2cccc(NS(C)(=O)=O)c2O[C@H]1CN(C)S(C)(=O)=O	22	16
C[C@H]1CN([C@@H](C)CO)C(=O)Cc2cc(NS(=O)(=O)c3ccccc3)ccc2O[C@@H]1CN(C)Cc1ccc(-c2ccccc2)cc1	-32	-22
Cc1ccc(-c2ccc(C3[C@@H]4CN(Cc5cccc(F)c5)C[C@H]3N4)cc2)cc1 (stereo partly drawn)	?	nt
Cc1noc(C)c1S(=O)(=O)Nc1ccc2c(c1)CC(=O)N([C@H](C)CO)C[C@H](C)[C@H](CN(C)Cc1ccc(C(=O)Nc3ccccc3N)cc1)O2	1	-10
C[C@H](CO)N1C[C@H](C)[C@@H](CN(C)S(=O)(=O)c2ccc(F)cc2)Oc2c(NC(=O)c3ccc(-c4nccs4)cc3)cccc2C1=O	3	3
CC(C)NC(=O)NCC[C@H]1CC[C@H](NC(=O)CN(C)C)[C@H](CO)O1	-6	0
O=C(C[C@@H]1C=C[C@@H](NC(=O)CCN2CCCCC2)[C@H](CO)O1)NCc1ccc(Cl)c(Cl)c1	?	nt
CCCC(=O)N1CC2(CN(C(=O)Nc3cccc(F)c3)C2)c2c(n(C)c3cc(OC)ccc23)[C@@H]1CO	-23	-17
COc1ccc(NC(=O)Nc2cccc3c2O[C@H](CN(C)C(=O)Nc2ccc(F)cc2)[C@@H](C)CN([C@@H](C)CO)C3=O)cc1	6	1
Cc1noc(C)c1S(=O)(=O)N(C)C[C@@H]1Oc2ccc(NC(=O)Nc3ccc(F)cc3)cc2CC(=O)N([C@H](C)CO)C[C@H]1C	13	0

7 consecutive records already listed, for reference:
SMILES	Vaccinia inh	Vaccinia inh Venus
C[C@H]1CN([C@@H](C)CO)C(=O)Cc2cc(NS(=O)(=O)c3ccccc3)ccc2O[C@@H]1CN(C)Cc1ccc(-c2ccccc2)cc1	-32	-22
Cc1ccc(-c2ccc(C3[C@@H]4CN(Cc5cccc(F)c5)C[C@H]3N4)cc2)cc1 (stereo partly drawn)	?	nt
Cc1noc(C)c1S(=O)(=O)Nc1ccc2c(c1)CC(=O)N([C@H](C)CO)C[C@H](C)[C@H](CN(C)Cc1ccc(C(=O)Nc3ccccc3N)cc1)O2	1	-10
C[C@H](CO)N1C[C@H](C)[C@@H](CN(C)S(=O)(=O)c2ccc(F)cc2)Oc2c(NC(=O)c3ccc(-c4nccs4)cc3)cccc2C1=O	3	3
CC(C)NC(=O)NCC[C@H]1CC[C@H](NC(=O)CN(C)C)[C@H](CO)O1	-6	0
O=C(C[C@@H]1C=C[C@@H](NC(=O)CCN2CCCCC2)[C@H](CO)O1)NCc1ccc(Cl)c(Cl)c1	?	nt
CCCC(=O)N1CC2(CN(C(=O)Nc3cccc(F)c3)C2)c2c(n(C)c3cc(OC)ccc23)[C@@H]1CO	-23	-17

(further entries)
SMILES	Vaccinia inh	Vaccinia inh Venus
C/C=C/c1ccc([C@@H]2[C@H](CO)N3CCCCN(C(=O)Nc4ccc(F)cc4)C[C@@H]23)cc1	?	nt
C[C@@H]1CN([C@H](C)CO)C(=O)c2cc(NS(=O)(=O)c3cccs3)ccc2O[C@@H](C)CCCCO[C@@H]1CN(C)Cc1ccncc1	3	2
COc1ccc(NC(=O)Nc2cccc3c2O[C@@H](CN(C)C(=O)Nc2ccccc2)[C@H](C)CN([C@@H](C)CO)C3=O)cc1	12	9
O=C(C1CCOCC1)N1C[C@@H]2[C@H](c3ccccc31)[C@@H](CO)N2Cc1ccccc1Cl	4	8
Cc1noc(C)c1NC(=O)N(C)C[C@@H]1Oc2c(NC(=O)NC3CCCCC3)cccc2C(=O)N([C@@H](C)CO)C[C@H]1C	4	3
COc1ccc(S(=O)(=O)N(C)C[C@H]2Oc3cc(C#CC4CCCC4)ccc3S(=O)(=O)N([C@H](C)CO)C[C@H]2C)cc1	?	nt
COC(=O)[C@@H]1[C@@H](CO)[C@@H]2Cn3c(ccc(-c4ccc(F)cc4)c3=O)[C@@H]2N1Cc1ccccn1	12	10
CCCNC(=O)N1[C@@H]2Cn3c(ccc(-c4ccccc4OC)c3=O)[C@H]1[C@@H](C(=O)NCC)[C@@H]2CO	10	-4
COC(=O)C[C@H]1C=C[C@@H](NS(=O)(=O)c2ccccc2F)[C@H](CO)O1	-5	-3
COc1ccc(CN(C)C[C@@H]2OCc3cn(nn3)CCCC(=O)N([C@H](C)CO)C[C@@H]2C)cc1	10	20
COc1ccc(CN(C)C[C@@H]2OCCCC[C@H](C)Oc3ccc(NC(=O)c4ccccc4)cc3C(=O)N([C@@H](C)CO)C[C@H]2C)cc1	?	nt
CC(C)NC(=O)N(C)C[C@H]1Oc2cc(C#Cc3cccc(F)c3)ccc2S(=O)(=O)N([C@H](C)CO)C[C@@H]1C	?	nt
Cc1ccc(S(=O)(=O)N(C)C[C@H]2Oc3cc(Br)ccc3S(=O)(=O)N([C@H](C)CO)C[C@@H]2C)cc1	?	-14
C[C@@H]1CN([C@@H](C)CO)C(=O)c2cc(C#CC3CC3)cnc2O[C@H]1CN(C)S(C)(=O)=O	31	22
O=C(CC1CC1)N1[C@H](CO)[C@H]2c3ccccc3N(S(=O)(=O)c3ccc(F)cc3)C[C@H]21	9	16
